Assay outcomes from PubChem.
PrP UTR inh: inhibition of PrP 5' UTR reporter expression; AID 488862; hit rate 0.35% among 340,000; inhibition, % (no concentration beside the values); cell-based PrP 5' UTR mRNA reporter, plate reader;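 active means every replicate at 50% or more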;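 further: 0 = median of the neutral control wells; tested in H4 reporter cells; numbers are from one replicate; inactives centre near -14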
Sa ugtP lethal: compounds lethal to S. aureus RN4220 ugtP deletion mutant; OD600 growth, 16 h; some inactives read as strong as hits; hit rate 0.54% among 330,000; growth inhibition, % (test concentration not listed); AID 1259309;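 active means z-score under -3 and OD600 up to 0.15 on both plates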;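 further: plate controls were untreated wells for no effect and antibiotic for full effect; wells of about 80 µL received 100 nL stock; the first replicate is given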
BJeLR viability: BJeLR cell viability loss; BJeLR (HRASV12) viability, CellTiter-Glo ATP luminescence, 48 h; reference of the scale not given here; inhibition, % (test concentration not listed); hit rate 0.17% among 300,000; AID 1554;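 active means replicate mean above 50%; inconclusive means above 50% but judged a plate artefact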;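 further: 50 nL library stock added to about 25 µL; numbers are from one replicate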
Mtb hypoxia rep: reduces hypoxia-regulated biosensor signal in M. tuberculosis. M. tuberculosis hypoxia-regulated fluorescent reporter, fluorescence. fluorescence inhibition, % (test concentration not listed). hit rate 0.1% among 300,000. AID 1159583;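 active means 35 to 45% if threefold the growth effect, above 45% if 1.5-fold the growth effect; inactive means the rest, general growth blockers included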;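 further: wells of about 50 µL received 100 nL stock; 0% = vehicle wells and 100% = reference inhibitor wells; whole bacteria with a GFP reporter of the hypoxia response; strong numbers were not always called active; many hits fall short of the cut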
Autofluor counter: flagged as autofluorescent in microsphere protease counterscreen. compound autofluorescence counterscreen, microsphere flow cytometry; stronger effect = higher value. fluorescence intensity (no concentration beside the values). hit rate 3.1% among 360,000. AID 624483;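 active means at least 3 SD above the mean of all compounds, about 16000 in these data; inconclusive means too few beads counted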;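 further: 100 nL of 1 mM stock went into each well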
RN4220 kill: S. aureus RN4220 growth inhibition; OD600, 16 h; inhibition, % (concentration not given with the values); hit rate 0.33% among 330,000; AID 1259311;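 active means z-score of -3 or lower and OD600 up to 0.18 on both plates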;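 further: plate controls were untreated cells for no effect and reference antibiotic for full effect; stock transfer was 100 nL into about 80 µL; one replicate is shown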
Mtb hypoxia rep growth: recorded beside Mtb hypoxia rep, whose call it bears; growth inhibition, %; measured here: M. tuberculosis growth (absorbance);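 0% = vehicle and 100% = reference antibiotic; read after six days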
* marks the source's active call; other numbers are inactive results; ? = inconclusive; / = not tested or not shown.

SMILES	PrP UTR inh	Sa ugtP lethal	BJeLR viability	Mtb hypoxia rep	Mtb hypoxia rep growth	Autofluor counter	RN4220 kill
C/C(=N\NC(=O)c1ccc(=O)[nH]n1)c1cccnc1	-20.0	/	-13.8	/	/	1978	/
COc1ccc(S(=O)(=O)N2CCC3(CC2)OCCN3S(=O)(=O)c2cccs2)cc1OC	-14.7	3.5	10.0	7.1	11.8	20013*	1.8
CS(=O)(=O)c1ccc(N2CCN(c3ccccn3)CC2)c([N+](=O)[O-])c1	-14.0	5.0	4.2	0.3	-4.3	3108	2.8
COc1ccc(C(=O)Cn2c(=O)oc3ccc(C)cc32)cc1	-26.7	-0.2	4.0	11.5	2.6	3998	0.4
O=C(CSc1cn(Cc2cccc(F)c2)c2ccccc12)NCc1ccc(F)cc1	-16.5	-3.4	2.5	3.8	7.1	6381	-4.2
COc1cc(/C=N/NC(=O)c2ccc(CSc3nc4ccccc4[nH]3)cc2)ccc1O	-9.4	/	-1.5	/	/	4569	/
COC(=O)c1sccc1NC(=O)Nc1ccccc1Cl	-7.4	8.5	/	9.9	6.4	6088	4.0
COc1ccccc1Oc1ccc(S(=O)(=O)N2CCCC2)cc1	-18.5	-2.4	11.0	9.4	17.9	23093*	5.3
CN(C)CCNc1nc(-c2ccco2)c2c(c1C#N)CC(C)(C)OC2	-10.4	-5.2	/	1.4	-1.5	24132*	-2.9
O=[N+]([O-])c1cccc(/C=N/n2cnnc2)c1O	-3.6	/	-8.4	/	/	10151	/
COc1ccc2c(c1)cc1c(=O)n(CC(=O)NC(C)CCc3ccccc3)nc(C)n12 (stereo not given)	-6.2	-2.4	-3.9	3.3	-3.2	?	-0.4
Cn1ccsc1=NC(=O)c1ccc(S(C)(=O)=O)cc1	-30.0	-2.1	-3.9	-5.3	-0.3	5643	8.7
CC(=O)Nc1ccc(NC(=O)C(C)OC(=O)CCCc2c[nH]c3ccccc23)cc1 (stereo not given)	4.4	3.0	1.5	-6.6	3.9	4333	3.5
O=S(=O)(/N=C(/Nc1cccc2ccccc12)c1ccccc1)c1ccc(F)cc1	-4.4	-1.4	6.5	6.2	-0.6	4315	0.9
Cn1c(O)c(C=NCc2cccs2)c(=O)n(C)c1=O	-23.0	7.6	10.4	5.3	0.5	5931	5.2
CC(C)(C)OC(=O)NCCCCC(NC(=O)c1nc[nH]c1C(=O)N1CCc2ccccc2C1)C(=O)OC(C)(C)C (stereo not given)	/	-9.3	/	8.8	6.3	/	2.4
COCCSc1nc(N)c(NC(=O)c2ccco2)c(=O)[nH]1	5.7	-0.4	-2.4	-1.6	-6.8	5554	3.1
CSc1ccccc1C(=O)Nc1cc2c(cc1C(=O)O)OCCCO2	-1.4	-4.7	5.1	5.3	-0.9	3781	5.7
COc1ccc(C(C(=O)NC2CCCC2)N2CCc3ccccc32)cc1 (stereo not given)	-12.9	7.9	-3.1	2.8	-4.2	4640	1.5
CCOCCCNC(=O)C1(O)c2cc(Br)ccc2NC(=O)N1c1cccc(OC)c1 (stereo not given)	-34.2	7.5	-6.2	15.2	4.7	3716	2.1
CCCCNS(=O)(=O)c1ccc2nc(SCC(N)=O)[nH]c2c1	2.1	3.2	-0.9	7.3	4.0	4767	3.4
Cc1c(NCc2cc(Cl)cc(Cl)c2O)c(=O)n(-c2ccccc2)n1C	-26.2	4.8	2.3	0.2	3.6	5192	1.7
O=[N+]([O-])c1ccc(OC/C=C2\Oc3ccc([N+](=O)[O-])cc3C2N2CCOCC2)cc1 (stereo not given)	-26.6	4.8	5.2	-0.7	4.7	2417	12.5
COc1ccc(CNC(=O)CCn2nc(C)c3c(C)n(-c4ccccc4)nc3c2=O)c(OC)c1	-7.3	3.7	5.9	2.3	4.3	4937	1.7
CN(C)c1ccc(C(=O)NNC(=O)Nc2ccccc2)cc1	-25.2	0.8	-2.6	1.4	4.1	2201	3.9
O=C(COc1ccccc1)N(Cc1cccc(F)c1)C1CCS(=O)(=O)C1 (stereo not given)	-26.1	-7.7	-1.8	-3.0	-3.6	/	-5.9
CCc1ccc(CCC(=O)Nc2ccc(C(C)=O)cc2)o1	-24.4	14.0	16.9	/	/	2571	-4.3
CC(=O)Oc1cc(O)c2c(c1)OC(c1ccc(OC(C)=O)c(OC(C)=O)c1)C(OC(C)=O)C2=O (stereo not given)	9.5	-0.3	-0.2	7.0	1.3	3741	0.9
N=c1sccn1CC(=O)NC(c1ccccc1)c1ccccc1	-7.4	0.3	10.5	-6.0	0.2	3129	5.8
COc1ccccc1CN1CC(C(=O)NC2(c3ccccc3)CC2)CCC1=O (stereo not given)	-18.9	12.9	3.9	7.9	1.5	4317	1.7
C=CCNC(=O)c1onc(CSc2cc(C)ccc2C)c1C(=O)O	-12.2	-4.5	-6.4	-10.9	-5.4	3947	6.1
CC(C)CC(=O)NC(NC(=S)Nc1cccc2cccnc12)C(Cl)(Cl)Cl (stereo not given)	-10.6	-20.4	4.8	12.6	1.4	3173	9.0
CC(=O)Nc1ccc(NC(=O)COC(=O)c2ccco2)cc1	-11.4	6.8	-3.7	1.4	3.7	3106	5.8
CCOc1ccccc1N(C(=O)CNC(=O)c1ccco1)C(C(=O)NC1CCCC1)c1cccnc1 (stereo not given)	-8.4	5.7	-2.9	/	/	4593	1.1
CCCCCCN(C(=O)CCCCCN1C(=O)NC(c2ccc(-c3ccccc3)cc2)C(C(=O)OCc2ccccc2)=C1C)C(C)C(=O)NCCCC (stereo not given)	/	9.0	5.4	2.4	5.8	/	1.1
CCN(CC)C(=O)C(=O)NN=Cc1cccc(Br)c1	/	0.6	/	2.3	2.6	/	8.2
N#Cc1ccc(Cn2c(=O)oc3ccccc32)cc1	-7.4	4.1	-13.3	20.8	12.1	3757	-2.7
COc1ccc(NC(=S)NN2C(C)CCCC2C)cc1 (stereo not given)	-47.6	2.3	4.1	5.8	2.9	10269	1.5
Cc1nc2ccccc2c(=O)n1CCCN1CCOCC1	-11.2	4.7	-7.5	3.0	-6.0	4155	2.9
COc1ccc(/C(O)=C2/C(=O)C(=O)N(CCN(C)C)C2c2ccc(C)cc2)cc1Cl (stereo not given)	-21.7	-6.2	-17.3	16.8	12.4	9119	5.3
CC1=CS/C(=C(/C#N)C(=O)N2CCCCC2)N1c1ccccc1	-8.3	/	12.4	/	/	3270	/
C#CCNC(=O)C1=C[C@H](c2ccc3c(c2)OCO3)[C@@H](CCCO)[C@H](OCC)O1	-15.9	/	-2.6	/	/	3563	/
CN(C(=O)c1cccc(NC(=O)Cc2ccc(NC(=O)C3CCCN(C(=O)C4CCCCC4)C3)cc2)c1)C1CC1 (stereo not given)	-29.5	6.9	/	-2.8	6.6	3493	2.6
O=C(NCCCCc1ccccc1)Nc1cccc(F)c1	-11.0	-4.5	2.8	-3.9	5.4	6401	-4.3
CN(C)C=Nc1c(C#N)cnn1-c1nc2ccccc2s1	/	-10.5	/	14.3	8.9	/	-16.6

Two successive entries already listed, quoted:
SMILES	PrP UTR inh	Sa ugtP lethal	BJeLR viability	Mtb hypoxia rep	Mtb hypoxia rep growth	Autofluor counter	RN4220 kill
O=C(NCCCCc1ccccc1)Nc1cccc(F)c1	-11.0	-4.5	2.8	-3.9	5.4	6401	-4.3
CN(C)C=Nc1c(C#N)cnn1-c1nc2ccccc2s1	/	-10.5	/	14.3	8.9	/	-16.6

Further structures:
SMILES	PrP UTR inh	Sa ugtP lethal	BJeLR viability	Mtb hypoxia rep	Mtb hypoxia rep growth	Autofluor counter	RN4220 kill
O=C(Cn1cc(C(=O)COc2ccccc2)c2ccccc21)NCc1ccco1	-11.4	-1.1	3.6	10.4	2.6	3325	3.8
O=C(NC1(C(F)(F)F)C(=O)Nc2c1c(=O)[nH]c(=O)n2-c1ccccc1)c1ccncc1 (stereo not given)	-11.1	-8.1	-7.7	1.0	2.8	?	-0.8
Cc1ccc(NC(=O)Nc2ccc3c(c2)CCC3)cc1	-63.9	-3.9	3.9	5.2	8.8	5750	2.3
O=C(C[n+]1ccn(CCCNP2(=O)C=C(c3ccccc3)OC(c3ccccc3)=C2)c1)c1cccs1	1.2	-2.2	-0.3	17.4	19.0	4363	0.5
COc1ccc(N=C(C)C2=C(O)c3ccccc3C2=O)cc1	-13.7	3.1	-11.5	-1.1	-5.3	10264	-4.0
COc1ccc(C=NNC(=O)c2ccc3ccccc3c2)cc1OS(=O)(=O)c1ccc(NC(C)=O)cc1	/	-35.9	/	-8.0	7.4	/	-7.4
O=C(Nc1ccc(Cl)cn1)c1cc2c(s1)-c1ccccc1OC2	-59.3	4.9	-11.9	5.6	-1.2	3447	10.2
O=C(CCSCCc1ccccn1)Nc1c(F)cc(F)cc1Br	0.7	5.8	2.7	0.9	6.1	2424	4.5
CC(C)(C)NC(=O)C(Cc1ccccc1)NS(=O)(=O)c1ccc2c(c1)CCC(=O)N2 (stereo not given)	-28.4	7.1	-9.7	4.7	9.5	11306	1.5
Cc1ccc(S(=O)(=O)NCC(=O)N(CC(=O)NCc2ccco2)C2CCCC2)cc1	-7.8	13.1	1.5	8.8	8.6	3524	-0.6
N#CC1=C2SCN(Cc3ccco3)CN2C(=O)CC1c1c(F)cccc1Cl (stereo not given)	-10.6	-4.3	-2.5	0.0	8.0	5989	-12.0
CC(C)(C)n1cc(C(=O)c2ccccc2OCCCF)cn1	/	3.7	12.0	2.2	-7.3	4052	1.8
OCCNCCCCOc1ccc(F)cc1	-26.3	16.1	-0.9	10.3	-5.8	7429	7.3
CS(=O)(=O)N1CCc2cc(C(=O)O)ccc21	-18.3	0.2	0.0	-11.3	-6.5	2873	12.8
O=C(Nc1ccc2c(c1)OCO2)C1CCN(S(=O)(=O)c2cccs2)CC1	/	-12.5	8.6	2.4	0.5	7839	-0.4
Cc1cc(C)nc(SCc2nc3nc(C)cc(C)n3c2Br)n1	-18.7	-1.2	4.1	1.4	3.6	5469	5.8
CSC1=C(C#N)C(c2sccc2C)CC(=O)N1 (stereo not given)	-1.8	-1.5	1.7	11.8	-5.2	3862	8.2
Cc1ccc(OCC(=O)O/N=C(\N)Cc2ccc([N+](=O)[O-])cc2)cc1C	-8.3	1.4	-6.0	4.4	12.4	3940	1.0
COC(=O)CCCN=C1SCCN1Cc1ccccc1	-4.2	4.1	-1.5	-0.2	0.6	4236	4.4
CCOc1ccc(N2C(=O)CC(N3CCC(NC(=O)Nc4ccccc4)CC3)C2=O)cc1 (stereo not given)	-13.1	11.7	8.7	/	/	4511	-0.7
CS(=O)(=O)c1ccc(C(=O)NCc2ccccc2F)cc1	-22.3	0.3	1.1	-3.7	5.7	3957	4.6
O=C1CC(c2ccco2)CC(O)=C1C=NCC1CCNCC1 (stereo not given)	6.9	-0.7	12.6	6.5	12.7	3189	-1.0
COc1cc(CNn2cn[nH]c2=S)cc(Br)c1OCc1ccccc1F	-23.1	14.8	7.7	15.2	1.0	3806	15.1
COC(=O)c1cc(C(=O)Nc2cccc(C)n2)cc([N+](=O)[O-])c1	-19.3	-3.3	-3.1	2.4	7.1	2589	-10.7
Cn1cccc1Cc1nnc(SCC(=O)NCc2ccco2)n1CCc1ccccc1	-11.0	-4.6	8.4	1.0	-1.3	15481	2.5
CC(/C=C/C=C/c1ccccc1)=N/NC(=O)CNc1ccccc1C	-1.8	/	-8.0	/	/	10916	/
CC1=C(C(=O)OCc2ccccc2)C(c2ccc(C#N)cc2)NC(=O)N1CCCC(=O)O (stereo not given)	-5.0	3.6	-4.7	21.4	10.9	4034	7.5
O=C(O)c1ccccc1C(=O)NCCCn1ccnc1	-13.8	7.3	-3.8	16.5	9.4	3774	5.7
CCCCCCSc1cc(-c2nc3ccc(Cl)cn3c2NC2CCCCC2)ccc1OC	-3.0	-1.5	-1.1	2.6	-11.2	3849	1.4
CS(=O)(=O)N(CC(=O)Nc1ccc(Br)cc1)C1CCCCC1	-19.2	-3.3	-5.9	-1.3	4.7	4182	-3.6

Random excerpt: 5 entries already listed, in no set order.
SMILES	PrP UTR inh	Sa ugtP lethal	BJeLR viability	Mtb hypoxia rep	Mtb hypoxia rep growth	Autofluor counter	RN4220 kill
CS(=O)(=O)N(CC(=O)Nc1ccc(Br)cc1)C1CCCCC1	-19.2	-3.3	-5.9	-1.3	4.7	4182	-3.6
Cn1ccsc1=NC(=O)c1ccc(S(C)(=O)=O)cc1	-30.0	-2.1	-3.9	-5.3	-0.3	5643	8.7
COc1ccc(/C(O)=C2/C(=O)C(=O)N(CCN(C)C)C2c2ccc(C)cc2)cc1Cl (stereo not given)	-21.7	-6.2	-17.3	16.8	12.4	9119	5.3
CN(C)CCNc1nc(-c2ccco2)c2c(c1C#N)CC(C)(C)OC2	-10.4	-5.2	/	1.4	-1.5	24132*	-2.9
O=C(NCCCCc1ccccc1)Nc1cccc(F)c1	-11.0	-4.5	2.8	-3.9	5.4	6401	-4.3
